# Assay outcomes (PubChem)
# VDR inh – inhibitors of human vitamin D receptor; P11473; VDR-SRC2-3 peptide fluorescence polarization, 2 h; Potency, µM, without a hit: max response, negative = inhibition, hits mostly inhibitors; 400,000 tested, 0.93% active; AID 504847; active means well fitted inhibition curve with a large enough effect; inconclusive means small, poorly fitted or top-dose-only effect, or another doubt; inactive means no such curve, though single readings can be large or run the other way; further: series mostly up to about 120 µM
# Target sequence (P11473 whole entry, looked up): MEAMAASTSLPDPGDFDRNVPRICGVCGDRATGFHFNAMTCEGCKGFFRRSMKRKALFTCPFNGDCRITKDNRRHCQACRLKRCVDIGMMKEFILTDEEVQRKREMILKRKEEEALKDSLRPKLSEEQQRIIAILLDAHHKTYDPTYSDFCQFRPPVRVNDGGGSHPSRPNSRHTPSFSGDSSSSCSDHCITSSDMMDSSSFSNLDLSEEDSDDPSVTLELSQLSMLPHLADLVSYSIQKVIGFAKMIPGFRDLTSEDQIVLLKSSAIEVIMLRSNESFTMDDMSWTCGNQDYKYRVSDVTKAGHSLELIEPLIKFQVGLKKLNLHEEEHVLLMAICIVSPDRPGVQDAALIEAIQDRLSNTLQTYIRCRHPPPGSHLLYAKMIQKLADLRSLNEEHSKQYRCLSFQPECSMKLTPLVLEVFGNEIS
#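 Signal is fluorescence polarization, reporting how far test compounds block the interaction of VDR with the SRC2-3 coregulator peptide after a 2 h room-temperature incubation.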
# Active calls of the source: *; ? = inconclusive; [ ] = dose if it differs, or a comment. On the % scale 0 is the no-effect control and ±100 the full control effect; potency means the concentration at half of the fitted maximal effect.
SMILES,VDR inh
CCN1C(=O)[C@@H]2[C@H](C1=O)[C@@H]1C(=O)Nc3ccccc3C(=O)N1[C@@H]2c1ccccc1,-16.9%
CCOc1ccc2nc(NC(=O)C3CCN(C(=O)c4ccco4)CC3)sc2c1,11.3%
COc1cccc(CN2C(=O)CCC2(C)C(=O)NC2CCCCCC2)c1 (centres undefined),12.4%
O=C(O)/C=C/c1ccccc1[N+](=O)[O-],3.7%
CCOC(=O)C1CCN(C(=O)CCc2c(C)nc3cc(-c4ccc(OC)cc4OC)nn3c2C)CC1,-8.6%
COc1ccc(CCNC(=O)C2CCN(S(=O)(=O)N3CCOCC3)CC2)cc1OC,9.1%
COc1ccccc1CN(C(=O)CCl)C(C(=O)NC1CCCCC1)c1ccncc1 (centres undefined),0.5%
Cc1cc(C(=O)NC(C)C2CCCO2)c(C)o1 (centres undefined),3.3%
CCCn1c(N)c(C(=O)CN(C)CC(=O)Nc2cc(C)ccc2C)c(=O)[nH]c1=O,-9.3%
NS(=O)(=O)c1ccc2c(c1)oc(=O)c1cc(S(N)(=O)=O)ccc12,22.2%
OCCN(CCO)CC(O)COc1ccc(C23CC4CC(CC(C4)C2)C3)cc1 (centres undefined),1.6%
Cc1cccn2c(=O)c3cc(C#N)c(=O)n(Cc4cccnc4)c3nc12,-6.7%
COc1ccc(C2Nc3ccccc3C(=O)N2c2cccc3ccccc23)cc1COc1c(C)cccc1C (centres undefined),-1.1%
COc1ccc(C(=O)Nc2nnc(CCS(=O)(=O)c3ccc(C)cc3)s2)cc1,-16.6%
COc1cc(NC(=O)COC(=O)C=C(C)C)c(C)cc1[N+](=O)[O-],-5.7%
O=C(NNS(=O)(=O)c1ccccc1[N+](=O)[O-])c1cccc(Br)c1,-7.2%
CCCCC(C(=O)O)C(C)CC(=O)Nc1cccc(C(=O)O)c1 (centres undefined),6.3%
CCN(CC)C(=O)[C@H]1CC(CC(=O)NCCCN(C)C)C(=O)N2CCc3c([nH]c4ccccc34)[C@]12C (some centres undefined),-16.3%
O=C(O)c1ccc(/C=N/O)cc1,-13.8%
O=C(Nc1nc(-c2ccccc2)cs1)c1ccc(N2CCOCC2)c([N+](=O)[O-])c1,-12.1%
C(=N\NCc1ccccc1)/c1ccc2nccnc2c1,-19.9%
COc1ccc(C(=O)c2cnc[nH]2)cc1,17.0%
O=C(Nc1ccccc1N1CCOCC1)c1ccc(Br)o1,5.2%
O=C(O)c1ccc(NS(=O)(=O)c2cc(Cl)sc2Cl)cc1,-15.7%
Cc1ccc(S(=O)(=O)Oc2ccc(/C=C(/NC(=O)c3ccccc3)C(=O)Nc3ccccc3)cc2)cc1,5.0%
Cc1nnc(NC(=O)CCn2c(=O)oc3ccccc32)s1,-12.0%
COc1cc(C(=O)N(CCCN(C)C)c2nc3c(OC)cccc3s2)cc(OC)c1OC,0.5%
CCCC(=O)Nc1ccc2oc(=O)ccc2c1,5.5%
CCCOc1ccc(C2C(C(=O)c3cc4ccccc4o3)=C(O)C(=O)N2c2cc(C)on2)cc1 (centres undefined),?
COc1ccc(C(=O)CSc2nnc(CNC(=O)c3ccccc3F)n2C)cc1OC,-2.1%
Cc1cccc(CN2C(=O)N/C(=C/c3cc(C)n(-c4cc(C)ccn4)c3C)C2=O)c1,-5.2%
O=C1c2ccccc2C(Nc2ccc(S(=O)(=O)N3CCCCC3)cc2)N1Cc1ccco1 (centres undefined),?
CCOC(=O)C1CCN(C(=O)Nc2c(-c3ccccc3)noc2C)CC1,-6.8%
O=c1cc(O)n(-c2ccccc2F)c(=S)[nH]1,-25.0%
COc1ccc(C(=O)O/N=C(/C)c2cccs2)cc1,12.7%
O=S(=O)(Nc1ccccc1)N1CCCCC1,5.7%
CC(=O)N(c1ccc(Br)cc1)C1C=CS(=O)(=O)C1 (centres undefined),-15.0%
O=C1c2ccccc2C(=O)N1CC(O)Cn1nnc2ccccc21 (centres undefined),20.5%
CCn1c(=O)[nH]c2cc(C(=O)Nc3cc(C)cc(C)c3)ccc2c1=O,-2.8%
CN(C)CCn1ccc(O)c(Cc2ccc(Cl)cc2)c1=O,-9.1%
COC(=O)c1ccc(C2C(C#N)=C(N)Oc3cc(N)ccc32)cc1 (centres undefined),9.0%
CCc1c(O)nc2sc3ccccc3n2c1=O,14.2%
CN1CCCN(Cc2cccc3ccccc23)CC1,0.3%
COCCNC(=O)c1cc(-c2ccccc2)nn1Cc1cc(C)no1,3.4%
O=S(=O)(NCc1ccccn1)c1ccc(Br)s1,-1.1%
O=C(CN1N=C(c2ccccc2)CCC1=O)NCc1ccccc1,-3.1%
O=C(O)c1cc(NC(=O)c2ccc3c(c2)C(=O)N(Cc2ccccc2)C3=O)cc(C(=O)O)c1,6.3%
O=C(CNC(=O)c1n[nH]c2ccccc12)Nc1cc(Cl)ccc1Cl,-7.0%
O=C(NCc1ccc(F)cc1Cl)c1cc(=O)[nH]c2ccc(S(=O)(=O)N3CCCCC3)cc12,3.0%
COc1ccc2cc(/C=N/NC(=O)CSCc3ccc([N+](=O)[O-])cc3)c(Cl)nc2c1,-2.4%
O=[N+]([O-])c1cc(C(F)(F)F)ccc1N1CCN(CCO)CC1,-8.8%
Cc1cc(C=O)c(C)n1-c1ccc(NC2CCCCC2)c([N+](=O)[O-])c1,5.4%
CCOc1ccc(NS(=O)(=O)c2ccc(C(=O)N(C)CC(=O)Nc3ccc(OC)cc3)cc2)cc1,14.8%
COc1ccc2c(=O)c(C(=O)NCCc3ccccc3)c[nH]c2c1,-1.3%
Cc1cc(C)c2nc(SCC(=O)NCC3CCCO3)c(C#N)cc2c1 (centres undefined),3.6%
NS(=O)(=O)c1cccc(NC(=O)CN2CCC(Cc3ccccc3)CC2)c1,0.5%
Cc1cc(-c2ccc(C)c(S(=O)(=O)Nc3cccc(C)n3)c2)on1,-4.0%
C=CCN1C(=O)c2ccc(C(=O)N3CCN(S(=O)(=O)c4cc(C)ccc4C)CC3)cc2C1=O,-9.5%
CCS(=O)(=O)c1nc(S(=O)(=O)c2ccc(C)cc2)c(NCC(C)C)s1,6.2%
Cc1ccnc(NS(=O)(=O)c2ccc(NC(=O)c3cc(-c4ccccc4)nc4ccccc34)cc2)n1,-20.8%

# The results go on:
SMILES,VDR inh
O=C(c1cc(N2C(=O)C3C4CCC(C4)C3C2=O)ccc1Cl)N1CCCCCC1 (centres undefined),-8.4%
COc1c(-c2ccccc2)oc2c(ccc3occc32)c1=O,1.2%
CCOc1ccccc1NC(=S)Nn1cnnc1,39.8µM*
Cc1cc(C(=O)OCC(=O)N(CC(C)C)c2c(N)n(Cc3ccccc3)c(=O)[nH]c2=O)c2ccccc2n1,-18.1%
O=C(NCc1ccc(N2CCCC2=O)cc1)c1cn(Cc2ccccc2)nn1,8.2%
Cc1cc(C)n(-c2nc(O)cc(=O)[nH]2)n1,20.8%
CCOc1ccc(NC(=S)N2CCN(S(=O)(=O)c3ccc(OC)cc3)CC2)cc1,?
CCn1ccc2cc(S(=O)(=O)N3CCCN(C(=O)NCCOC)CC3)ccc21,0.1%
COc1cnc(-c2ccccn2)nc1Oc1ccccc1Cl,3.3%
Cc1cc(C)c(C(=O)CSc2n[nH]c(-c3ccncc3)n2)c(C)c1,-13.2%
Nn1c(SCC(=O)Nc2cccc(F)c2)nnc1C1CCCCC1,-4.2%
CC(=O)c1ccc(NC(=O)COC(=O)C2CC3C=CC2C3)cc1 (centres undefined),-6.7%
CCc1nc(SCc2nc3ccccc3[nH]2)c2oc3ccccc3c2n1,12.2%
Cc1cccc(-c2c(NC(=O)c3ccco3)oc3ccc(Cl)cc3c2=O)c1,14.8%
COc1ccc(C(CC(=O)O)NC(=O)COc2ccccc2)cc1 (centres undefined),-6.7%
COc1ccc(NC(=O)c2ccco2)cc1S(=O)(=O)N1CCOCC1,35.0%[activator]
Cc1ccc([N+](=O)[O-])cc1S(=O)(=O)NCC1COc2ccccc2O1 (centres undefined),?
CCOc1ccc(NC(=O)CN(c2cc(C)cc(C)c2)S(=O)(=O)c2c(C)noc2C)cc1,-12.4%
CC/C(=N\NC(=O)c1ccccc1Cl)c1ccc(Br)s1,3.2%
COc1ccc(-n2cc(C(=O)N(C)c3cc(C)ccc3OC)c3ccccc3c2=O)cc1,-5.4%
O=C1Nc2ccc(F)cc2C12Nc1ccccc1-c1nnc(SCc3ccccc3Cl)nc1O2 (centres undefined),-22.1%
Cc1nc(N2CCN(c3ccc(Cl)cc3)CC2)[nH]c(=O)c1C,-2.9%
CC12CN3CC(C)(CN(C1)C3c1ccc(Cl)cc1Cl)C2O (centres undefined),5.9%
CCOC(=O)c1[nH]c(C)c(C(=O)N2CCCC(Nc3ccc(C)c(C)c3)C2)c1C (centres undefined),10.7%
N#Cc1c(N2CCCCC2)nc(N)c2c(N)nc3c(c12)CC(CCl)O3 (centres undefined),-10.8%
O=c1[nH][nH]c(=O)c2c1[nH]c(=S)n2Cc1ccccc1,-5.5%
Cc1cccc(-c2nc3c(s2)CCc2onc(-c4ccc(Br)cc4)c2-3)c1,-0.5%
CC(C)(C)n1nnnc1C(c1cccs1)N1CCN(c2ccccc2)CC1 (centres undefined),-15.9%
Cc1ccc(C(=O)NCc2ccccc2)c(F)c1F,-5.8%
CCOC(=O)c1c(C)[nH]c(C(=O)CN2C(=O)C(=O)N(CC(C)C)C2=O)c1C,-4.2%
O=C(O)/C=C/c1ccc(S(=O)(=O)N(CCO)CCO)cc1,5.2%
CC(Oc1ccc(C(C)(C)C)cc1)C(=O)NC1CC(C)(C)NC(C)(C)C1 (centres undefined),-1.3%
CCN(CC)CCCNC(=S)N1CCn2c(nc3ccccc32)C1,-4.2%
O=C(NCc1ccccc1F)c1ccc2ccccc2n1,-8.5%
Cc1ccc(-c2cc(-c3cccs3)[nH]n2)c(O)c1,-3.5%
O=C(CCCn1c(SCC(=O)Nc2ccccc2C(F)(F)F)nc2ccccc2c1=O)NCC1CCCO1 (centres undefined),6.3%
O=c1cc(CN2CCCCCC2)nc2sccn12,?
COc1cc2c(cc1OC)C(C(=O)NCCN1CCOCC1)C1c3ccccc3CCN1C2=O (centres undefined),10.0%
COc1ccc(/C=C/C(=O)OCC(=O)N2CCCC2)c(OC)c1,-2.2%
CS(=O)(=O)NNC(=O)c1csc(Cc2c(Cl)sc3ccc(Cl)cc23)n1,2.2%
CCn1c(SCC(=O)Nc2ccc(F)cc2)nnc1-c1cnccn1,6.0%
COc1ccc(S(=O)(=O)N(C)CC(=O)NC2CCCCC2)cc1Cl,6.6%
CC(=O)Nc1ccc(/C=N/NC(=O)c2cc(-c3ccco3)nc3ccccc23)cc1,-5.0%
COc1cc2c(cc1OC)CN(C(=O)/C=C/c1cccs1)CC2,-3.6%
CCOc1ncccc1C(=O)Nc1ccc(-c2ccc3nnc(C)n3n2)cc1,-9.8%
Cc1[nH]nc2c1C(c1cccs1)C1=C(CC(C)(C)CC1=O)N2 (centres undefined),-14.2%
COc1cc(-c2nc3ccc(N4CCN(C)CC4)cc3[nH]2)cc(OC)c1OC,-23.9%
CCOC(=O)Cc1nn(CC)c(=O)c2ccccc12,-28.9%
CC(=O)N1CCc2cc(S(=O)(=O)NC3CCCc4ccccc43)ccc21 (centres undefined),11.3%
COc1ccc(C2=Nn3c([n+](C)c4ccccc43)SC2)cc1,?
CCC(C)NC(=O)c1cc(-c2cccs2)nc2ccccc12 (centres undefined),10.0%
CC1CN(C(=O)CSc2nnc(-c3ccncc3)n2-c2ccccc2)CC(C)O1 (centres undefined),14.7%
O=C(Nc1ccc(CN2CCOCC2)cc1)c1cccc(F)c1,-6.8%
Cc1ccnc(Nc2nc(-c3ccc(Cl)cc3)cs2)c1,70.7%[activator]
O=C(OCC1CC(c2ccccc2Cl)=NO1)c1ccc(Br)cc1 (centres undefined),-12.2%
O=C(NCc1ccccc1Cl)c1ccncc1,-11.5%
Cc1cccc(OCC(=O)N(Cc2ccccc2)c2c(N)n(Cc3ccccc3)c(=O)[nH]c2=O)c1,19.6%
O=C(NCC1CCCO1)c1ccc[nH]1 (centres undefined),14.1%
Cc1ccc(S(=O)(=O)c2cc(C#N)c(=O)[nH]c2N)cc1,3.4%
S=c1[nH]cnc2scc(-c3ccccc3)c12,?
COC(=O)c1ccc(C23CC4(C2)[C@H](CN(CC2CCCCC2)[C@@H]4c2ccccc2)C3c2ccc(C(F)(F)F)cc2)cc1 (some centres undefined),-6.0%

# Only part of the results is shown, so the mix of outcomes need not match the whole.
